Screening results deposited in PubChem BioAssay by several laboratories.
Rce1 inhib: blocks yeast Ras-converting enzyme | Q03530 | hit rate 0.27% among 290,000 | calls only | yeast membranes, quenched prenylated peptide cleavage fluorescence | AID 2563;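 active means fall in fluorescence gain of 50% or more versus controls, with final raw signal at or below 3038400; inconclusive means same 50% fall but final raw signal above 3038400; inactive means fall in fluorescence gain under 50%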;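 further: plate controls were neutral control wells for no effect and wells lacking membranes for full effect; tested at 10 µM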
Target sequence (Q03530 whole entry, looked up): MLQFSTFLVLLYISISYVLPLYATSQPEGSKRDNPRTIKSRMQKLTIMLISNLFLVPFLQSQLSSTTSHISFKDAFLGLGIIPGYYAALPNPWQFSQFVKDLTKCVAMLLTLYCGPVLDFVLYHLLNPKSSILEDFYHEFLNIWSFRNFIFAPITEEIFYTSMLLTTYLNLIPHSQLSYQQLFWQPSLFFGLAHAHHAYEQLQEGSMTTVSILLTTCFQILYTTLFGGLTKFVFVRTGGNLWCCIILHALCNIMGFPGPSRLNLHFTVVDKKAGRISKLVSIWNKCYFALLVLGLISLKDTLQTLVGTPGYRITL
Yeast UUG start: alters start codon recognition fidelity in yeast; S. cerevisiae UUG-firefly luciferase reporter, luminescence/redox ratio; hit rate 0.13% among 350,000; activity score, % at 18.7 µM; AID 602363;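 active means replicate mean at a twofold rise or more, about +100% in these data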;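 further: firefly luciferase made from a UUG start codon reports start codon fidelity; reporter light over untreated wells divided by growth signal over untreated wells; some hits fall short of that in this replicate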
HIV Env fusion: blocks HIV Env-driven cell-cell fusion | hit rate 1.1% among 360,000 | inhibition, % at 12.3 µM | HeLa-JRFL Env/CEM21 cell fusion, luciferase;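 active means mean replicate inhibition score of at least 50 and every replicate individually at or above 50; inconclusive means only one of the two criteria met; inactive means mean below 50 and not all replicates reaching 50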;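 further: 0% = plate neutral controls and 100% = maraviroc near 300 nM; one replicate is shown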
MT1-MMP act inh: inhibitors of human MT1-MMP activation. P50281. HT1080 RFP-PRO-GFP cells, GFP/RFP ratio fluorescence, overnight; percent of plate control window, DMSO zero. GFP/RFP ratio change, % at 20 µM. hit rate 0.061% among 360,000. AID 651647;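 active means GFP/RFP ratio change of at least 30% with cell ATP level not reduced by more than half and red fluorescence within 50% of control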; further: strong numbers were not always called active
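Material – HT1080 RFP-PRO-GFP cells · Control set – DMSO wells and RFP-L50D-GFP cells · Incubation – overnight cell settling, then overnight compound exposure, 37 °C, 5% CO2 · Compound dosing – single-point 20 µM compound, 1% DMSO · Read-out – GFP/RFP fluorescence ratio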
eIF4H inh: inhibitors of RNA binding by human eIF4H. inhibition, % at 35 µM. eIF4H fluorescence polarization binding assay. AID 2012. hit rate 0.94% among 290,000;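 active means 50% or more with normal probe brightness, or confirmed in later tests; inconclusive means above 50% with abnormal brightness, or retests that disagree; inactive means below 50% or failed in later tests; about a fifth of its hits are not listed in these tables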;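 further: calls also rest on retests at 20 µM and on dose response follow-up; 0% = protein and probe with vehicle and 100% = probe without protein; strong numbers were not always called active; many hits fall short of the cut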
PABP polyA inh: PABP-poly(A) binding inhibition. P11940. PABP-poly(A) RNA binding, fluorescence polarization. inhibition, % at 35 µM. hit rate 1% among 290,000. AID 2014;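 active means 50% or more with normal probe brightness, or confirmed in later tests; inconclusive means above 50% with abnormal brightness, or retests that disagree; inactive means below 50% or failed in later tests; about a fifth of its hits are not listed in these tables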;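 further: calls also rest on retests at 20 µM and on dose response follow-up; controls were probe without protein and protein plus probe with vehicle; some compounds called inactive have numbers as strong as hits; many hits fall short of the cut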
Target sequence (P11940 whole entry, looked up): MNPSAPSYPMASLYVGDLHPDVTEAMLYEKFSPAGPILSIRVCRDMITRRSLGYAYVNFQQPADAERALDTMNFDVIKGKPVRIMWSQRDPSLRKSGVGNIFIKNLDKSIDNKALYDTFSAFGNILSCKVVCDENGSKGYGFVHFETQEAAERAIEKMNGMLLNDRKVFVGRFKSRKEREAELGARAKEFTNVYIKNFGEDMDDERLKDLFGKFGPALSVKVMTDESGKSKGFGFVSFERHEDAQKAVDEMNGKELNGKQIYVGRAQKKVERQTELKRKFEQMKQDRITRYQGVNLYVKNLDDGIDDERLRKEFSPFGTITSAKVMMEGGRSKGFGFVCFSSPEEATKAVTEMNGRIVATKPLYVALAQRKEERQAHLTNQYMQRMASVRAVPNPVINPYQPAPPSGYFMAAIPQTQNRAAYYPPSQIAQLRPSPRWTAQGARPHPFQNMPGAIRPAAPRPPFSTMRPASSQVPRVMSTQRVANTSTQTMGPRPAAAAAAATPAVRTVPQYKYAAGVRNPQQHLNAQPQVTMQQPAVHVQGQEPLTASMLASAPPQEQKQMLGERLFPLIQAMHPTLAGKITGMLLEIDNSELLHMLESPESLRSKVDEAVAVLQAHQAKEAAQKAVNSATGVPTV
CSC inhib: blocks cancer stem cells; cancer stem cell-like cells viability, luminescence; inhibition, % at 7.5 µM; hit rate 1.1% among 300,000;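 active means mean at 75% or more and at least half the replicates too; inconclusive means mean and replicates disagree; tested in HMLE shEcad cells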;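 further: 0% = median of negative and 100% = median of positive control wells; the first replicate is given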
eIF4H inh retest: further read-out of eIF4H inh, marked with its call; inhibition, %; compound at 20 µM; confirmation average;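 mean of two retest wells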
PABP polyA inh retest: recorded beside PABP polyA inh, whose call it bears; inhibition, %; compound at 20 µM; confirmation repeats;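 mean of two retest wells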
MT1-MMP act inh RFP: recorded beside MT1-MMP act inh, whose call it bears; RFP signal change, %; measured here: RFP expression control read;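 0 = vehicle wells; hits needed this value within 50% of zero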
The depositor's hits bear a star; i = inactive; ? = inconclusive; · = no result given.

SMILES | Rce1 inhib | Yeast UUG start | HIV Env fusion | MT1-MMP act inh | MT1-MMP act inh RFP | eIF4H inh | PABP polyA inh | CSC inhib | others
CC1CCCCN1C(=O)COC(=O)c1ccc2ccccc2n1 (stereo not given) | · | -11 | -14 | -1 | -1 | · | · | -16
CN(C)c1ccc(N=Nc2ccccc2C(=O)OCC(=O)Nc2ccccc2C(F)(F)F)cc1 | i | -11 | -9 | 11 | 2 | -1 | -5 | ·
S=C(NCc1cccs1)NCC1CCCO1 (stereo not given) | i | · | 3 | -2 | -3 | 2 | -3 | ·
CN(C)N=Nc1ccc(S(=O)(=O)NC(Cc2ccccc2)C(=O)O)cc1 (stereo not given) | i | -6 | -4 | 4 | 6 | -8 | 1 | -1
O=C(OC1CCN(c2ncc(C(F)(F)F)cc2Cl)CC1)c1ccc(Cl)cc1 | i | -3 | 0 | 9 | 3 | -9 | -8 | -23
Cc1sc(N)nc1C12CC3CC(CC(C3)C1)C2 | · | · | 12 | 0 | -1 | -10 | -8 | 10
CCOC(=O)C1=C(C)NC2=C(C(=O)c3ccccc32)C1c1ccc(O)cc1 (stereo not given) | i | · | 5 | 3 | 1 | 1 | 5 | ·
CN(CC(=O)Nc1cccc(F)c1)C(=O)c1cn2ccccc2n1 | · | -13 | · | 3 | 0 | · | · | -11
C#CCOCCOCCOCCNc1nc(N2CCN(C(=O)[C@H](CCCCN)n3cc(CCCC)nn3)CC2)nc(N2CCN(C(=O)[C@H](Cc3ccc(O)cc3)n3cc(CCO)nn3)CC2)n1 | i | 2 | · | 4 | 6 | 7 | 9 | 11
Cc1ccc(C(=O)CN2C(=O)C(C)Oc3ccccc32)cc1 (stereo not given) | i | · | -28 | 0 | 4 | -7 | -9 | -10
COC(=O)C(Cc1c[nH]c2ccccc12)NC(=O)c1cc(-c2ccc(OC)c(OC)c2)oc1C (stereo not given) | i | -8 | · | -2 | -4 | -5 | 2 | 12
c1ccc(CSc2nnc3c(n2)OC(c2ccco2)Nc2ccccc2-3)cc1 (stereo not given) | i | -3 | · | -8 | 1 | 4.0* | 99 | -9 | eIF4H inh retest=84*;PABP polyA inh retest=45
Oc1ccccc1C=NCCN1CCN(CCN=Cc2ccccc2O)C1c1ccccc1O (stereo not given) | · | -23 | -1 | -2 | 2 | · | · | ·
Cc1ccc2ccccc2c1C(O)c1ncc(-c2ccc(Cl)cc2)[nH]1 (stereo not given) | · | -13 | -26 | -1 | -3 | · | · | ·
Cc1noc(C)c1COc1ccccc1C(=O)NC(C)CCc1ccccc1 (stereo not given) | · | -1 | 6 | -3 | 0 | · | · | ·
C(=N\n1cnnc1)/c1cccnc1 | i | -28 | -6 | 2 | -1 | -5 | -18 | -11
COc1ccc(NC(=O)COC(=O)Cc2ccc(Br)cc2)cc1 | i | · | 15 | -3 | 6 | -9 | 6 | 3
CCN(CC)C(=O)C(=O)c1cccn1-c1ccc(C#N)cc1 | i | · | -3 | -9 | 2 | -4 | 0 | -6
COc1ccc(CCN=c2c([N+](=O)[O-])nn(-c3cccc(C)c3)n2O)cc1OC | i | · | 5 | 4 | -5 | 2 | 7 | 11
C[N+](C)(C)C(Cc1c[nH]c2ccccc12)C(=O)[O-] (stereo not given) | i | · | · | · | · | 2 | 5 | ·
COC(=O)c1cc(OC)c(OCc2cc(C(=O)OC)oc2C)c(OC)c1 | i | 7 | · | 4 | 5 | 6 | 1 | 0
CCOc1cc(C2NC(=O)NC(C)=C2C(=O)NCc2ccccc2)c(Cl)cc1O (stereo not given) | i | 6 | · | -4 | 1 | -7 | -5 | -4
CCc1cc(-c2n[nH]c(C)c2-c2nc(C)cs2)c(O)cc1OC | i | · | 1 | 3 | -4 | -10 | -5 | 3
CCOC(=O)c1nn(-c2cccc(C)c2)c2nnc(Cc3ccc(C)cc3)c(=O)n12 | i | · | 28 | 1 | -1 | -5 | -8 | -13
COC(=O)c1ccc(NC(=O)CSc2nc(N)c(NC(=O)c3ccc(Br)o3)c(=O)[nH]2)cc1 | i | -18 | · | 0 | 0 | 0 | 18 | 4

Additional compounds follow.
SMILES | Rce1 inhib | Yeast UUG start | HIV Env fusion | MT1-MMP act inh | MT1-MMP act inh RFP | eIF4H inh | PABP polyA inh | CSC inhib | others
O=C(Nc1cccc(OC(=O)c2ccc(Br)o2)c1)c1ccccc1 | i | -23 | ? | 3 | 6 | -5 | 6 | -1
COc1ccc(N(CC(=O)NCc2cccnc2)S(=O)(=O)c2ccccc2)c(OC)c1 | i | -11 | 2 | -3 | 4 | · | · | -14
Cc1ccccc1Nc1ncc(C#N)c(N)n1 | i | -9 | -18 | 2 | 1 | -1 | 9 | -8
S=c1[nH]nc(C2CCCCC2)n1/N=C/c1ccccc1Cl | i | -16 | -28 | -1 | -1 | 8 | 4 | ·
Cc1ccc(Sc2nc3c(c(=O)[nH]c(=O)n3C)n2CCc2ccccc2)cc1 | · | -24 | 9 | 1 | 0 | -13 | -2 | 6
Cc1ccccc1OC1=NS(=O)(=O)c2ccccc21 | i | · | -6 | -3 | -1 | -8 | 1 | -22
CCC(C(=O)N1CCN(Cc2ccc3c(c2)OCO3)CC1)n1c(=O)[nH]c2ccccc2c1=O (stereo not given) | i | -14 | 20 | -6 | 1 | -2 | 3 | 0
CCOC(=O)c1c(C)c(C(=O)NCc2cccs2)c(C)n1CC | i | 20 | · | -3 | -4 | 2 | 0 | ·
CN(CC(=O)Nc1ccccc1N1CCOCC1)S(=O)(=O)c1ccc(Cl)cc1 | i | -2 | · | -3 | -3 | -7 | 2 | -12
COC(=O)c1ccc(COC(=O)c2cccnc2Cl)cc1 | i | -14 | -75 | -3 | -4 | 2 | -3 | 1
Cc1cccc(NC(=O)c2ccccc2SCc2ccc(F)cc2)n1 | · | -14 | · | -6 | -5 | · | · | -11
CCOc1ccccc1N1CCN(C(=O)c2cc(C)oc2C)CC1 | i | · | · | -19 | -1 | 3 | 17 | -6
O=S(=O)(c1ccccc1)N1CCC2(CC1)OCCO2 | i | -8 | 4 | -10 | -4 | -5 | -10 | -5
N=C1C(c2nc3ccccc3[nH]2)=C(O)CN1NC(=O)c1c[nH]c2ccccc12 | i | · | -35 | 18 | 5 | 11 | 6 | ·
CCCCC(C)n1[nH]c(=O)cc1N (stereo not given) | i | 5 | · | -1 | -1 | -12 | 5 | -17
O=C(NCc1n[nH]c(=S)n1-c1ccc(Cl)c(Cl)c1)c1ccc(S(=O)(=O)N2CCOCC2)cc1 | i | · | 13 | 1 | 7 | 6 | -8 | -5
Cc1nn(C)cc1CNC(=O)c1cccc(Cl)c1 | i | -14 | -19 | 5 | 1 | 6 | 7 | -13
COc1ccc(NC(=S)N(CCCN2CCCC2)Cc2ccco2)cc1 | i | · | -6 | 5 | 6 | 0 | 2 | -14
COc1ccc(OC)c(NC(=O)CSc2nnc(CNC(=O)c3ccccc3F)o2)c1 | i | -20 | -1 | -1 | 2 | -1 | 24 | 6
Cc1cc(NC(=O)c2cccc([N+](=O)[O-])c2)n(-c2ccccc2)n1 | i | -25 | -11 | 1 | 2 | -7 | 5 | -6
O=C(Cc1cccs1)NCc1ccc(Cl)cc1Cl | i | -13 | -39 | -3 | -4 | -5 | 1 | 1
COc1cccc(-n2c(=O)c3c(C)c(C(=O)N(C)C)sc3n(CC(=O)NCCc3ccc(OC)c(OC)c3)c2=O)c1 | · | · | 19 | -1 | 1 | 6 | 0 | -12
CC(Sc1nncs1)C(=O)NCc1ccc2c(c1)OCO2 (stereo not given) | i | -15 | · | 2 | 7 | -4 | 17 | -13
COCCNC(=O)CN1C(=O)COc2ccc(S(=O)(=O)N3CC(C)CC(C)C3)cc21 (stereo not given) | i | -11 | -4 | -1 | 4 | -6 | 5 | 14
CSCC[C@H](NC(=O)Nc1ccc(OC(F)(F)F)cc1)C(=O)O | i | · | -19 | 3 | 2 | -6 | 7 | -2

Arranged by length of the SMILES (low to high): 11 of the compounds above.
SMILES | Rce1 inhib | Yeast UUG start | HIV Env fusion | MT1-MMP act inh | MT1-MMP act inh RFP | eIF4H inh | PABP polyA inh | CSC inhib | others
Cc1ccccc1Nc1ncc(C#N)c(N)n1 | i | -9 | -18 | 2 | 1 | -1 | 9 | -8
Cc1nn(C)cc1CNC(=O)c1cccc(Cl)c1 | i | -14 | -19 | 5 | 1 | 6 | 7 | -13
Cc1ccccc1OC1=NS(=O)(=O)c2ccccc21 | i | · | -6 | -3 | -1 | -8 | 1 | -22
O=S(=O)(c1ccccc1)N1CCC2(CC1)OCCO2 | i | -8 | 4 | -10 | -4 | -5 | -10 | -5
COC(=O)c1ccc(COC(=O)c2cccnc2Cl)cc1 | i | -14 | -75 | -3 | -4 | 2 | -3 | 1
CSCC[C@H](NC(=O)Nc1ccc(OC(F)(F)F)cc1)C(=O)O | i | · | -19 | 3 | 2 | -6 | 7 | -2
CN(CC(=O)Nc1ccccc1N1CCOCC1)S(=O)(=O)c1ccc(Cl)cc1 | i | -2 | · | -3 | -3 | -7 | 2 | -12
Cc1cc(NC(=O)c2cccc([N+](=O)[O-])c2)n(-c2ccccc2)n1 | i | -25 | -11 | 1 | 2 | -7 | 5 | -6
COc1ccc(N(CC(=O)NCc2cccnc2)S(=O)(=O)c2ccccc2)c(OC)c1 | i | -11 | 2 | -3 | 4 | · | · | -14
CCC(C(=O)N1CCN(Cc2ccc3c(c2)OCO3)CC1)n1c(=O)[nH]c2ccccc2c1=O (stereo not given) | i | -14 | 20 | -6 | 1 | -2 | 3 | 0
O=C(NCc1n[nH]c(=S)n1-c1ccc(Cl)c(Cl)c1)c1ccc(S(=O)(=O)N2CCOCC2)cc1 | i | · | 13 | 1 | 7 | 6 | -8 | -5

Other entries.
SMILES | Rce1 inhib | Yeast UUG start | HIV Env fusion | MT1-MMP act inh | MT1-MMP act inh RFP | eIF4H inh | PABP polyA inh | CSC inhib | others
Cc1ccccc1NC(=O)C(NC1CCCCC1)C(C)C (stereo not given) | i | · | 0 | 2 | -4 | -10 | 1 | -1
COc1cccc(COC(=O)C2CCN(C(=O)c3ccccc3C)CC2)c1OC | i | 5 | · | -2 | 1 | -7 | 1 | 15
CCCN1CCN(C(=O)c2oc3ccccc3c2NC(=O)C2CC2)CC1 | i | -20 | 7 | -9 | -2 | 1 | -5 | -12
Cc1cc(C)c(C#N)c(SCc2[nH]nc3c2C(c2ccccc2)C(C#N)=C(N)O3)n1 (stereo not given) | i | -17 | · | 5 | 0 | -1 | -7 | ·
Cc1ccccc1NC(=O)Cc1nc(COC(=O)c2cccc(C)c2O)cs1 | i | -9 | 0 | 0 | 1 | -9 | -4 | -5
CC1CCCCN1Cc1ccc(N(C)C)cc1 (stereo not given) | i | -11 | · | -8 | -2 | -4 | -8 | -9
COc1ccc(CCN(Cc2nc3ccccc3c(=O)[nH]2)C(=O)c2ccco2)cc1OC | i | -7 | · | 1 | 3 | -11 | 11 | -5
Cc1cccc(OCCCC(=O)Nc2ccccc2C(F)(F)F)c1 | i | 10 | -3 | 0 | 0 | -4 | 9 | 10
CN(CC(=O)Nc1ccccc1Cl)C(=O)c1cccc(-n2cccc2)c1 | i | 4 | -8 | 0 | -1 | · | · | ?
COc1ccc(OCC(O)CN2C(=O)c3ccccc3C2=O)cc1 (stereo not given) | i | -11 | -8 | 1 | 5 | 6 | -6 | -2
